# miR-21 FLuc – miR-21 reporter, rising signal; 340,000 tested, under 10 active; HeLa miR-21 FLuc reporter, luciferase, 48 h; Potency, µM (titrated, usually from 38.3 µM), for the others: top-dose reporter change, positive = more light; active = well fitted rising curve with a large enough effect; inconclusive = small, poorly fitted or top-dose-only effect; inactive = no such curve, though single readings can be large or run the other way;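 note: % of control where 0% means no effect; miR-21 action dims this reporter so a rising signal means less miR-21 action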
#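 HeLa cells stably expressing CMV-driven firefly luciferase with a downstream miR-21 binding sequence, endogenously expressing miR-21, were treated with titrations (up to about 40uM final) for 48 hours at 37 degree Celsius. Luciferase luminescence was read after lysis.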
# * hit, by the source's call; ? = inconclusive. Only part of the results is shown. The share of hits here may be higher or lower than overall.
SMILES,miR-21 FLuc
Cc1ccccc1CSc1cn(CC(=O)N2CCCCC2)c2ccccc12,-11%
COc1cccc(C2=CC(c3ccc(OC)c(OC)c3OC)n3ncnc3N2)c1 (stereo unspecified),0%
Cc1ccc(N2C(=O)CSC23C(=O)N(CC(=O)Nc2ccccc2F)c2ccccc23)cc1C (stereo unspecified),-10%
CCc1ccccc1NC(=O)c1cc(S(=O)(=O)N2CCCc3ccccc32)ccc1F,16%
COc1ccc(C(=O)NCCc2sc(-c3ccc(Cl)cc3)nc2C)c(OC)c1,9%
CCOc1ccc(-c2nnc(SCC(=O)NC(C)CC)nc2-c2ccc(OCC)c(OC)c2)cc1OC (stereo unspecified),-10%
Cn1c(=O)n(C)c2cc(NS(=O)(=O)c3ccc(C(C)(C)C)cc3)c(NCc3ccccc3)cc21,-40%
COc1ccc(NC(=O)c2ccc3nc(C(C)C)oc3c2)cc1OC,-18%
CCC(=O)N1CCc2cc(CNC(=O)c3ccc(F)cc3)ccc21,-35%
N#Cc1c(-n2ncnc2-c2cccc(Cl)c2)sc2c1CCCCC2,-26%
CCCCN(CC)C(=O)CSc1nc2c(sc3ccccc32)c(=O)n1CCc1ccccc1,3%
CCCCN1C(=O)CN(C2CCCCCC2)C(=O)C1c1ccc(OCC)c(OC)c1 (stereo unspecified),-2%
COc1ccccc1Nc1sc(C(=O)c2ccc(C)cc2C)c(N)c1S(=O)(=O)c1ccccc1,9%
CCc1ccccc1NC(=O)c1ccc2c(c1)c(C)c(C)n2Cc1ccccc1,-17%
CCCCn1cc(S(=O)(=O)c2cc(C)ccc2C)c(=O)c2cc(F)c(N3CCC(C)CC3)cc21,0%
Cc1c(NC(=O)c2cc(-c3cccc(O)c3)on2)c(=O)n(-c2ccccc2)n1C,6%
COc1cc(Cl)c(C)cc1NC(=O)c1cc2c(=O)oc3ccccc3c2s1,9%
COc1ccc(CCNC(=O)c2nc(-c3ccc(Cl)cc3)n3c2CCCCC3)c(OC)c1,15%
CCOc1ccc(NC(=O)N2CCC(CN3CCC(C)CC3)CC2)cc1,-2%
CCN1CCC(N(Cc2ccc3c(c2)OCO3)C(=O)Nc2cc(F)ccc2F)CC1,-14%

# Reformatted with tabs: 6 of the compounds above.
molecule	miR-21 FLuc
Cn1c(=O)n(C)c2cc(NS(=O)(=O)c3ccc(C(C)(C)C)cc3)c(NCc3ccccc3)cc21	-40%
COc1ccc(NC(=O)c2ccc3nc(C(C)C)oc3c2)cc1OC	-18%
CCC(=O)N1CCc2cc(CNC(=O)c3ccc(F)cc3)ccc21	-35%
N#Cc1c(-n2ncnc2-c2cccc(Cl)c2)sc2c1CCCCC2	-26%
CCCCN(CC)C(=O)CSc1nc2c(sc3ccccc32)c(=O)n1CCc1ccccc1	3%
CCCCN1C(=O)CN(C2CCCCCC2)C(=O)C1c1ccc(OCC)c(OC)c1 (stereo unspecified)	-2%

# Continuation.
SMILES,miR-21 FLuc
Cc1noc(C)c1S(=O)(=O)Nc1ccc(C(=O)Nc2ccc(C(C)C)cc2)cc1,?
COc1ccccc1C(=O)Nc1ccc2nc(SCC(=O)N3CCCC3)sc2c1,-16%
CC(=O)N1CCCc2cc(S(=O)(=O)N3CCCC(C(=O)Nc4ccc(F)cc4F)C3)ccc21 (stereo unspecified),13%
CCOc1ccc(NC(=O)Cn2c(=O)n(-c3ccc(C)cc3)c(=O)c3cc(OC)c(OC)cc32)cc1,-2%
CCc1ccc(NC(=O)Cn2c(=O)n(-c3cc(C)cc(C)c3)c(=O)c3oc4ccccc4c32)cc1,0%
CC(=O)c1ccc(N2CCN(C(=O)CCS(=O)(=O)c3ccc4c(c3)oc(=O)n4C)CC2)cc1,-5%
Cc1cccc(-c2nc3c4c(-c5ccccc5)c(-c5ccccc5)oc4ncn3n2)c1,-7%
CCOC(=O)c1c(NC(=O)c2ccc(S(=O)(=O)N3CCCC(C)C3)cc2)sc2c1CCN(C(C)C)C2 (stereo unspecified),15%
O=C(NC1(C(F)(F)F)NC(=O)N(CCc2ccccc2)C1=O)c1ccccc1Cl (stereo unspecified),1%
COc1cccc(CCNC(=O)c2cnc3sc(N4CCCC4)nn3c2=O)c1,4%
COc1ccc(OC)c(NC(=O)C(NS(=O)(=O)c2ccc3c(c2)CCCC(=O)N3)C(C)C)c1 (stereo unspecified),-5%
Cc1cc2c(c3oc(=O)c4ccccc4c13)CN(Cc1ccc(F)cc1)CO2,-9%
CCc1nn(CC(=O)NCc2ccco2)c(=O)c2cc3c(OC)cccc3n12,0%
CCOC(=O)c1ccccc1NC(=O)C1CCN(c2ncnc3c2nc2n3CCCCC2)CC1,-5%
CC(NC(=O)c1c(O)nc2ccccn2c1=O)c1ccccc1 (stereo unspecified),-6%
Cc1ccc(Cl)c2sc(NC(=O)CS(=O)(=O)c3ccc(Cl)cc3)nc12,-5%
Cc1nn2c(C)c(C(=O)NCc3ccco3)cnc2c1-c1ccccc1,0%
COCCCNC(=O)c1ccc2c(c1)NC(=O)C(C(C)C)N2 (stereo unspecified),2%
Cc1ccc(CNC(=O)CCC(=O)N2CC3CCCN3c3ccccc32)cc1 (stereo unspecified),29%
O=C(CSc1nc(-c2ccccc2)nc2cc(=O)[nH]n12)Nc1ccccc1,-9%
Cc1ccc(NC(=O)Cc2ccc(-n3c(C)nc4cccnc43)cc2)c(Cl)c1,?
Cc1cccc(NC(=O)Cn2c(=O)n(Cc3ccccc3)c(=O)c3sc4ccccc4c32)c1,-2%
COc1ccc(C)cc1NC(=O)C1CCN(S(=O)(=O)c2c(C)noc2/C=C/c2ccco2)CC1,-4%
Cc1ccc(CNC(=O)CC(C)CC2=NS(=O)(=O)c3ccccc3N2)cc1 (stereo unspecified),2%
Cc1ccc(-n2ncc(C(=O)N3CCCCC3)c2C2CCN(C(=O)OC(C)(C)C)CC2)cc1C,-1%
CCOc1ccc2c(c1)NC(c1ccc(OCC)c(OCC)c1)=NC(c1ccc(F)cc1)=N2,-50%
COc1ccc(N2CC(NC(=O)CCc3ccccc3)CC2=O)cc1OC (stereo unspecified),-5%
CCOC(=O)c1cc(-c2ccccc2)n(CCCC(=O)Nc2ccc(C)c(Cl)c2)c1C,16%
COc1ccc(-c2[nH]c(-c3ccc(O)cc3)nc2-c2ccccc2)cc1,2%
O=C(c1ccc2c(c1)OCCO2)N(Cc1cccnc1)c1nc2ccc(F)cc2s1,-65%
Cc1cccc(C)c1OC(=O)CSc1nnc(CNC(=O)c2ccccc2)o1,-7%
CCCOc1ccc(C2C(=O)N(C3CCCCC3)CC(=O)N2C2CCCCC2)cc1OC (stereo unspecified),-2%
CCOC(=O)c1c(-c2ccc(OC)c(OC)c2)csc1NC(=O)c1ccc(F)cc1,-1%
O=C(NCc1ccccc1Br)c1cnc2sc(N3CCCCCC3)nn2c1=O,-1%
O=c1[nH]c2ccc(NCc3ccc(-c4ccccc4F)o3)cc2[nH]1,7%
CCOC(=O)c1ccccc1NC(=O)CSc1nc2ncccc2[nH]1,-9%
O=C(COc1ccc([N+](=O)[O-])cc1)Nc1cccc2cccnc12,-21%
COc1cc(C(=O)N2CCN(c3ccc(Nc4ccccc4)nn3)CC2)cc(OC)c1OC,1%
COC(=O)c1ccccc1NC(=O)Cn1cc(S(=O)(=O)Cc2ccccc2F)c2ccccc21,-4%
CC(Sc1oc(-c2cccs2)nc1S(=O)(=O)c1ccccc1)c1ccccc1 (stereo unspecified),-8%
CCC(Sc1nc2ccccc2c2nc(CCn3c(C)nc4ccccc43)nn12)C(=O)Nc1ccc(F)cc1 (stereo unspecified),-2%
CCc1ccc(S(=O)(=O)Nc2cc(-c3cn4ccccc4n3)ccc2C)cc1,9%
CCOc1cc(C(=O)Nc2ccc(NC(=O)c3cc4ccccc4o3)c(OC)c2)cc(OCC)c1OCC,-8%
CCc1nc2ccc(C(=O)NCc3ccc(SC)cc3)cc2nc1CC,-1%
O=C(NC1CC(=O)N(c2cccc(F)c2)C1)c1cccs1 (stereo unspecified),0%
Cc1ccc2oc(-c3cccc(NC(=O)Cc4ccc(Cl)cc4)c3)nc2c1,-6%
Cc1ccc(C)c(N2CCN(c3nc4ccccc4c(=O)n3-c3ccc(Cl)cc3)CC2)c1,-1%
Fc1cccc(Cl)c1Cn1c(-c2cccs2)nc2ccccc21,16%
O=C(Nc1cccc(O)c1)c1cc2nc(-c3ccc(Br)cc3)cc(C(F)(F)F)n2n1,3%
Cc1ccc(-c2nc3nc(C)cc(N4CCN(c5cccc(C)c5C)CC4)n3n2)cc1,-2%
Cc1nnc(N2CCC(C(=O)N3CCCCC3)CC2)c2nn(-c3ccccc3)c(C)c12,-3%
CCCCC(=O)Nc1ccc(C(=O)OCc2cc(=O)n3ccsc3n2)cc1,9%
CCC(=O)N1CCc2cc(Br)cc(S(=O)(=O)N3CCCC(C(=O)NCc4cccc(OC)c4)C3)c21 (stereo unspecified),4%
COc1ccc(OC)c(NC(=O)C2=C(C)C(=O)OC23CCCCCC3)c1,-6%
CCn1c(C(=O)N2CCC(C(=O)NCCCOC)CC2)cc2sccc21,-2%
Cc1ccc(Cc2nc3ccccc3nc2SCC(=O)NCCC(C)C)cc1,-7%
COc1ccc(CCNc2oc(/C=C/c3cc(OC)c(OC)c(OC)c3)nc2C#N)cc1OC,15%
CC(=O)N1CCc2cc(S(=O)(=O)N3CCN(c4ccc(C)cc4)C(C)C3)ccc21 (stereo unspecified),7%
CCCCNc1ccc(-c2nc(-c3ccccn3)no2)cc1[N+](=O)[O-],2%
CCc1ccc(S(=O)(=O)c2nnn3c2nc(NCc2cccc(OC)c2)c2cc(Cl)ccc23)cc1,2%

# Carrying on.
SMILES,miR-21 FLuc
COc1ccc(C2c3[nH]c4ccc(OC)cc4c3CCN2C(=O)Nc2ccccc2)cc1 (stereo unspecified),?
COc1ccc(CNC(=O)c2cc(-c3ccc(OC)c(OC)c3)nc3n[nH]c(-c4ccc(C)cc4)c23)cc1,27%
CCOc1cc(C#N)c(NC(=O)c2ccc(OC)c(S(=O)(=O)N3CCN(c4ccccc4)CC3)c2)cc1OCC,11%
COCCNc1nc2c(S(=O)(=O)c3ccccc3)nnn2c2ccc(Cl)cc12,1%
CCCCn1cc2c(c1-c1ccc(Cl)cc1)c(=O)n(C)c(=O)n2C,16%
Cc1c(CNC2CCC(C)CC2)c(C(=O)O)c(C)n1Cc1ccc(Cl)cc1 (stereo unspecified),-6%
CCCc1cnc2c(c1SCc1ccc(C(F)(F)F)cc1)c(=O)n(C)c(=O)n2C,-3%
COCCCNC(=O)c1oc2c(c1C)-c1nn(Cc3ccc(Cl)cc3)cc1CC2,-4%
COC(=O)C1=C(c2ccccc2)c2ccccc2S(=O)(=O)N1CC(=O)Nc1ccccc1Cl,4%
Cc1ccc(-c2nc(CCNC(=O)C(=O)Nc3ccc(C)cc3C)cs2)cc1,-2%
COc1ccc(CCNC(=O)c2ccc3c(c2)nc2n3CCCCC2)cc1OC,-7%
CC(=O)N1CCc2cc(S(=O)(=O)CCC(=O)Nc3ccc(C)cc3Br)ccc21,-3%
COc1ccccc1CNC(=O)CCCn1c(=O)c2cccn2c2ccccc21,-6%
Cc1ccc(NC(=O)Nc2sc3nc4n(c(=O)c3c2C)CCC(C)CC4)c(Cl)c1 (stereo unspecified),-9%
Cc1ccc(C(=O)c2cn(Cc3ccc(F)cc3)c3nc(C)ccc3c2=O)cc1,0%
O=C(CCn1c(=O)c2cccn2c2cccnc21)N1CCN(c2ccccc2)CC1,-1%
COc1cc(NC(=O)NCCn2nnc3cc(S(=O)(=O)N(C)C)ccc32)cc(OC)c1,-3%
CCOc1cccc(C(=O)Nc2c(C(=O)c3ccc(OC)cc3)oc3ccccc23)c1,-10%
CC1=C(c2ccc(C)c(C)c2)S(=O)(=O)N=C1N1CCC(C(=O)NCc2ccc(C)o2)CC1,-2%
COc1ccc2[nH]cc(CCNC(=O)Nc3c(C)cccc3C)c2c1,-1%
CCn1c(=O)c2sccc2n2c(CCCC(=O)Nc3ccc(OC)c(OC)c3)nnc12,5%
COc1ccc(CCNC(=O)CCn2c(=O)c3ccccc3n(Cc3c(C)cc(C)cc3C)c2=O)cc1OC,0%
CCC(C)n1c(=N)c(C(=O)NC2CCCCC2)cc2c(=O)n3ccccc3nc21 (stereo unspecified),-11%
Cc1cccc2c1-c1sc(C(=O)N(C)c3cccc(C(F)(F)F)c3)cc1CO2,-5%
COc1ccc(-c2cc(C(=O)OCC(=O)c3ccc(C)cc3)c3cccc(Cl)c3n2)cc1,-1%
Cc1ccc(Cn2c(=O)n(Cc3ccc(C(=O)NC4CCN(Cc5ccccc5)CC4)cc3)c(=O)c3ccccc32)cc1,-4%
CCCCCc1ccc(-c2ccc(C(=O)Oc3ccc(C(=O)OC)cc3)cc2)nc1,-60%
Cc1ccc2c(CC(=O)Nc3nnc(C(C)C)s3)coc2c1C,-6%
COc1ccccc1NC(=O)Cn1nc2c3cc(F)ccc3n(Cc3cccc(C)c3)cc-2c1=O,-4%
CCOC(=O)c1c(C)c(-c2ccccc2)n(CC(=O)Nc2cc(OC)cc(OC)c2)c1C,16%

# Exported field by field: entries from further up.
mol: Cc1cccc2c1-c1sc(C(=O)N(C)c3cccc(C(F)(F)F)c3)cc1CO2
  miR-21 FLuc = -5%
mol: CCCCCc1ccc(-c2ccc(C(=O)Oc3ccc(C(=O)OC)cc3)cc2)nc1
  miR-21 FLuc = -60%
mol: COc1ccc(-c2cc(C(=O)OCC(=O)c3ccc(C)cc3)c3cccc(Cl)c3n2)cc1
  miR-21 FLuc = -1%
mol: Cc1ccc2c(CC(=O)Nc3nnc(C(C)C)s3)coc2c1C
  miR-21 FLuc = -6%

# Screens as filed in PubChem BioAssay.
